Sa RN4220 lethal = kills Staphylococcus aureus RN4220; inhibition, % (test concentration not listed); 330,000 tested, 0.33% active; AID 1259311; S. aureus RN4220 growth, OD600, 16 h;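 active = z-score of -3 or lower and OD600 up to 0.18 on both plates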;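 also: plate controls were untreated cells for no effect and reference antibiotic for full effect; stock transfer was 100 nL into about 80 µL; one replicate is shown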
ugtP null kill = compounds lethal to S. aureus RN4220 ugtP deletion mutant | 330,000 tested, 0.54% active | OD600 growth, 16 h; some inactives read as strong as hits | AID 1259309 | growth inhibition, % (no concentration beside the values);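 active = z-score under -3 and OD600 up to 0.15 on both plates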;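 also: plate controls were untreated wells for no effect and antibiotic for full effect; wells of about 80 µL received 100 nL stock; the first replicate is given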
PrP 5UTR inh = suppresses PrP 5' UTR mRNA reporter expression. 340,000 tested, 0.35% active. cell-based PrP 5' UTR mRNA reporter, plate reader. inhibition, % (no concentration beside the values);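 active = every replicate at 50% or more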;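 also: 0 = median of the neutral control wells; tested in H4 reporter cells; numbers are from one replicate; inactives centre near -14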
BJeLR lethal = BJeLR cell viability loss. BJeLR (HRASV12) viability, CellTiter-Glo ATP luminescence, 48 h; reference of the scale not given here. inhibition, % (concentration not given with the values). 300,000 tested, 0.17% active. AID 1554;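 active = replicate mean above 50%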;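 also: 50 nL library stock added to about 25 µL; numbers are from one replicate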
Autofluor counter = counter-screen for toxin protease inhibitors: compound fluorescence | compound autofluorescence counterscreen, microsphere flow cytometry; active compounds read high | fluorescence intensity (no concentration beside the values) | 360,000 tested, 3.1% active | AID 624483;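 active = at least 3 SD above the mean of all compounds, about 16000 in these data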;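 also: 100 nL of 1 mM stock went into each well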
Mtb hypoxia rep = reduces hypoxia-regulated biosensor signal in M. tuberculosis. M. tuberculosis hypoxia-regulated fluorescent reporter, fluorescence. fluorescence inhibition, % (concentration not given with the values). 300,000 tested, 0.1% active. AID 1159583;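 active = 35 to 45% if threefold the growth effect, above 45% if 1.5-fold the growth effect; inactive = the rest, general growth blockers included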;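 also: wells of about 50 µL received 100 nL stock; 0% = vehicle wells and 100% = reference inhibitor wells; whole bacteria with a GFP reporter of the hypoxia response; strong numbers were not always called active; many hits fall short of the cut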
Mtb hypoxia rep growth = also measured in Mtb hypoxia rep; calls as there; growth inhibition, %; measured here: M. tuberculosis growth (absorbance);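 0% = vehicle and 100% = reference antibiotic; read after six days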
Active calls of the source: *; / = no result given. This is a random part of the collection; about 4% have a hit in one of these screens.

The opening two entries, to show the layout:
entry	SMILES	Sa RN4220 lethal	ugtP null kill	PrP 5UTR inh	BJeLR lethal
1	COc1cc(C2=Nc3ccc(Br)cc3C(c3ccccc3)N2CC(=O)NN)cc(OC)c1OC (centres undefined)	-1.3	-7	/	-3
2	CN(CC(=O)Nc1ccc(N2CCOCC2)cc1)CC(=O)Nc1ccccc1[N+](=O)[O-]	3.4	11	-18	-9

entry	Autofluor counter	Mtb hypoxia rep	Mtb hypoxia rep growth
1	4465	-4	18
2	10597	3	-1

The listing, previewed entries included:
entry	SMILES	Sa RN4220 lethal	ugtP null kill	PrP 5UTR inh	BJeLR lethal
1	COc1cc(C2=Nc3ccc(Br)cc3C(c3ccccc3)N2CC(=O)NN)cc(OC)c1OC (centres undefined)	-1.3	-7	/	-3
2	CN(CC(=O)Nc1ccc(N2CCOCC2)cc1)CC(=O)Nc1ccccc1[N+](=O)[O-]	3.4	11	-18	-9
3	CCNc1ccc(S(=O)(=O)N(C)C)cc1NCC(=O)Nc1c(F)cccc1F	7.3	2	13	-5
4	O=C(O)CSCC(=O)N1CCCN(c2nccc(C(F)(F)F)n2)CC1	2.9	-3	-23	2
5	Clc1nc(NC2CCCCC2)c2cn[nH]c2n1	5.5	24	-1	/
6	CC1CC(C)CN(CCCNC(=O)c2csc3c2CCCC3)C1 (centres undefined)	3.2	-2	5	-6
7	CSc1ccccc1C(=O)C1CCCN(C(=O)c2cncs2)C1 (centres undefined)	3.8	7	-19	0
8	COc1ccc(C(=O)Nc2cccc(-c3ccc4nncn4n3)c2)cc1	-0.2	13	-17	0
9	CC1CCCN(S(=O)(=O)c2ccc(C(=O)Nc3sc4c(c3C(N)=O)CCN(C)C4)cc2)C1 (centres undefined)	4.3	12	-3	20
10	CC(Sc1nnc2ccccn12)C(=O)Nc1ccc(Cl)cn1 (centres undefined)	0.1	-4	-26	4
11	CCN1CCN(CC(=O)Nc2ccc3c(c2)OCO3)C(=O)C1=O	4.3	6	0	-3
12	Cc1ccc(OCCCn2c(=O)oc3ccccc32)cc1	-1.2	-9	-11	-1
13	CCCCNCc1cc(OC)c(OCC(N)=O)cc1Br	0.8	-3	-21	0
14	Cc1ccc(C2CC(c3cccc(C)c3)n3ncnc3N2)cc1 (centres undefined)	5.2	2	-21	-5
15	Cc1ccc([N+](=O)[O-])cc1S(=O)(=O)n1ccnc1C	0.7	3	-16	-5

entry	Autofluor counter	Mtb hypoxia rep	Mtb hypoxia rep growth
1	4465	-4	18
2	10597	3	-1
3	2019	2	2
4	3944	1	-3
5	3645	7	10
6	6616	5	6
7	5341	2	-9
8	4311	10	16
9	5069	9	-8
10	11155	4	9
11	5493	-7	-4
12	3281	-14	1
13	9543	0	0
14	5922	/	/
15	3480	2	0

Part of the list above in order of molecular weight, falling.
entry	SMILES	Sa RN4220 lethal	ugtP null kill	PrP 5UTR inh	BJeLR lethal
2	CN(CC(=O)Nc1ccc(N2CCOCC2)cc1)CC(=O)Nc1ccccc1[N+](=O)[O-]	3.4	11	-18	-9
13	CCCCNCc1cc(OC)c(OCC(N)=O)cc1Br	0.8	-3	-21	0
14	Cc1ccc(C2CC(c3cccc(C)c3)n3ncnc3N2)cc1 (centres undefined)	5.2	2	-21	-5
15	Cc1ccc([N+](=O)[O-])cc1S(=O)(=O)n1ccnc1C	0.7	3	-16	-5

entry	Autofluor counter	Mtb hypoxia rep	Mtb hypoxia rep growth
2	10597	3	-1
13	9543	0	0
14	5922	/	/
15	3480	2	0

The results go on:
entry	SMILES	Sa RN4220 lethal	ugtP null kill	PrP 5UTR inh	BJeLR lethal
16	Cn1c(=O)c2c(ncn2CC(=O)OCC(=O)Nc2cc(Cl)ccc2Cl)n(C)c1=O	-0.8	0	-7	-8
17	COc1ccc(OC)c(NC(=S)NCc2cccs2)c1	2.8	3	-15	-8
18	CN(O)/C=C1\C(=O)Nc2ccccc21	-6.5	-5	-19	-5
19	O=C1NC(=O)C(CC(=O)N(Cc2cccs2)C2(C(=O)NC3CCCC3)CCCCC2)N1 (centres undefined)	-1.4	10	-3	2
20	O=C(Nc1ccc(NC(=O)c2ccc(S(=O)(=O)c3ccccc3)cc2)cc1)c1ccccc1	-12	-7	-23	2
21	O=C(CSc1nnc(C2CC2)n1C1CC1)c1ccc(F)cc1	1.3	0	-33	/
22	Cc1c(C(=O)NNc2c(Cl)cccc2Cl)n(C)oc1=O	2.3	2	-7	-4
23	O=C(NCC(c1cccs1)N1CCOCC1)c1cc(S(=O)(=O)N2CCOCC2)ccc1Cl (centres undefined)	0.8	1	-17	/
24	COc1cccc(OC)c1C(=O)Nc1ccc(NC(=O)c2ccco2)cc1	1.8	-4	-31	1
25	CCc1ccc(NC(=O)CO/N=C(\C)c2cc3ccccc3o2)cc1	/	/	-10	-4
26	O=C1C(Cc2ccc(Br)cc2)SC(=Nc2ccccc2)N1c1ccccc1 (centres undefined)	-9.7	6	-9	-5
27	O=S(=O)(c1ccccc1F)N1CCN(c2nc(-c3cccnc3)nc3ccccc23)CC1	-3.3	-11	-8	/
28	O=C1N(Cc2cccc(Cl)c2)C[C@@H]2C[C@@H](c3cccn3-c3ccccn3)N3CCC[C@@]123	1.7	3	-13	3
29	CN(Cc1nc2ccc(F)cc2[nH]1)Cc1nc(CC2CC2)no1	2.8	6	-5	-1
30	CCOC(=O)N1CCN(S(=O)(=O)N(C)C)CC1	-2.2	-4	-16	-2

entry	Autofluor counter	Mtb hypoxia rep	Mtb hypoxia rep growth
16	2013	-6	-1
17	2115	4	0
18	2795	4	8
19	2467	3	4
20	3091	8	0
21	3695	18	10
22	4800	1	-3
23	/	9	5
24	3919	7	4
25	2308	/	/
26	2035	15	4
27	10799	0	5
28	5457	19	8
29	2230	13	10
30	2441	/	/

Look-ups from the list:
Value for `CN(O)/C=C1\C(=O)Nc2ccccc21` under PrP 5UTR inh: -19
Value for `COc1cccc(OC)c1C(=O)Nc1ccc(NC(=O)c2ccco2)cc1` under Mtb hypoxia rep growth: 4

The listing continues.
entry	SMILES	Sa RN4220 lethal	ugtP null kill	PrP 5UTR inh	BJeLR lethal
31	OC(COCc1ccccc1)CN1CCN(c2ccccc2)CC1 (centres undefined)	1.8	13	-9	-4
32	COC1CCN(Cc2c(C(=O)N3CCN(C4CCCCC4)CC3)nc3ccccn23)CC1	-0.5	2	-35	-11
33	CCc1ccc(C(C)NC(=O)c2ccc(F)cc2)cc1 (centres undefined)	4.5	-1	-24	-5
34	CCc1ccc(-c2cc(C)no2)cc1S(=O)(=O)NCCN1CCC(C)CC1	3.1	3	-13	-4
35	CSC1=NCCN1C(=O)c1ccc(C)cc1	0.0	3	-13	18
36	COc1cccc(CN2CCN(Cc3cc4ccccc4[nH]3)CC2CCO)c1 (centres undefined)	2.0	8	-37	12
37	CC(C)(CC(=O)OCC(=O)Nc1ccccc1F)CC1=NS(=O)(=O)c2ccccc2N1	-5.2	12	-23	1
38	Cc1cc2ccccn2c1C(=O)c1ccccc1Br	9.4	13	-1	-4
39	CC(NC(=O)c1cc(-c2ccncc2)nc2ccc(Br)cc12)C1CCCO1 (centres undefined)	-4.9	-6	-6	-8
40	C=C(C)Cn1c(CCCNC(=O)C(C)(C)C)nc2ccccc21	6.4	-5	-15	-7
41	CCCCSc1cc(C)nc2ncnn12	4.4	0	-19	-3
42	Cc1ccc(CNC(=O)C(CC(C)C)OC(=O)c2ccco2)cc1 (centres undefined)	1.2	10	3	-1
43	COc1ccc(Nc2nnc(SCC(=O)N3CC(=O)Nc4ccccc43)s2)cc1	-0.6	3	-13	4
44	CC(Oc1cccc(Cl)c1)C(=O)Nc1cc(S(=O)(=O)N2CCOCC2)ccc1N1CCCCC1 (centres undefined)	-3.0	-1	-5	3
45	Cc1cc(C2=NNC(=NC3CC3)SC2)c(C)n1-c1ccccc1F	2.0	-2	94*	22

entry	Autofluor counter	Mtb hypoxia rep	Mtb hypoxia rep growth
31	2975	/	/
32	5687	-5	-6
33	2604	/	/
34	5923	-2	5
35	5445	11	1
36	6294	4	12
37	4126	6	3
38	5309	-2	-5
39	4407	-8	-1
40	3643	14	17
41	3735	6	11
42	3250	4	-3
43	2459	-10	-1
44	5149	7	8
45	2328	-3	6

Other records follow.
entry	SMILES	Sa RN4220 lethal	ugtP null kill	PrP 5UTR inh	BJeLR lethal
46	O=P(c1ccccc1)(c1ccccc1)c1nc(-c2ccc(Cl)cc2)oc1N1CCOCC1	-1.1	-12	-31	/
47	COc1cc(-c2cc(=O)c3ccccc3o2)ccc1O	3.2	-8	-6	2
48	Oc1ccccc1-c1cc(-c2ccco2)[nH]n1	2.1	-25	-113	-8
49	CC(C)Sc1nnc(SCC(=O)N(C)C2CCS(=O)(=O)C2)s1 (centres undefined)	6.0	0	-9	/
50	O=C(CSc1nnc(-c2ccncc2)o1)Nc1ccccc1Cl	2.7	-10	-27	3
51	O=C(Nc1cccc(Cl)c1)ON=C1c2ccccc2-c2ccccc21	-3.6	-34	-34	4
52	Cc1cccc(C)c1NC(=O)C[N+](C)(C)CC(O)COc1cccc2ccccc12 (centres undefined)	-16	7	-11	1
53	CC(C)c1ccc(NC(=O)C(c2ccccc2)N2CCOCC2)cc1 (centres undefined)	-2.8	15	-14	12
54	COc1ccccc1-c1nnc(NC(=O)C2=COCCO2)o1	5.3	7	-9	-17
55	C/C(C=NNC(=O)c1nnn(-c2nonc2N)c1C(C)C)=C\c1ccccc1	13	-3	/	/
56	Cc1ccc(S(=O)(=O)N2CCN(C(=O)COC(=O)COc3ccc(Cl)cc3)CC2)c(C)c1	-0.4	-7	-6	/
57	N#Cc1c(N2CCOCC2)nc(-c2ccco2)c2c1CCCC2	11	14	-5	1
58	O=C(C1CCN(c2nnc(-n3cccc3)s2)CC1)N1CCN(c2cccc(C(F)(F)F)c2)CC1	-1.1	-5	-29	6
59	COC(=O)C1=C(c2cccc(OCc3ccccc3)c2)CC2CCC1N2C(=O)NCCOc1ccc(OC)cc1 (centres undefined)	-3.4	-13	/	/
60	COc1ccc(OC)c(-c2cc(C(=O)NCc3cccs3)no2)c1	1.9	-3	-6	-22

entry	Autofluor counter	Mtb hypoxia rep	Mtb hypoxia rep growth
46	2531	-9	-12
47	4398	/	/
48	5907	3	0
49	3803	2	0
50	3946	/	/
51	12428	8	2
52	3074	/	/
53	5367	11	1
54	2124	7	7
55	/	-16	7
56	/	3	1
57	3511	/	/
58	2812	13	23
59	/	0	10
60	8357	0	1

Following part.
entry	SMILES	Sa RN4220 lethal	ugtP null kill	PrP 5UTR inh	BJeLR lethal
61	O=C(CSc1ccc2ccccc2n1)N/N=C/c1ccccc1O	/	/	-2	6
62	O=S(=O)(c1ccc(F)cc1)N1CCCN(c2nccc(C(F)(F)F)n2)CC1	4.8	-5	-16	-10
63	Oc1ccc(-c2nccs2)cc1	0.4	-5	-16	/
64	Cn1cccc1/C=N/n1c(-c2ccc(C(C)(C)C)cc2)n[nH]c1=S	/	/	-22	4
65	COc1cccc(CC2(CO)CCCN(Cc3cn[nH]c3-c3ccc(F)cc3)C2)c1 (centres undefined)	1.1	1	-16	-7
66	CSC(=S)NN=Cc1ccccc1	3.7	16	/	/
67	CCOC(=O)NN1C(=O)c2ccccc2NC1c1ccc(N(C)C)cc1 (centres undefined)	6.3	4	-35	-7
68	Cc1cc(-c2ccccc2)nc(NN=Cc2ccccc2)n1	5.1	-1	/	/
69	Cc1cc(Oc2cnn(C(C)(C)C)c(=O)c2Cl)cc(C(C)C)c1	-0.7	-3	-14	-5
70	CC(C)c1nnc(NC(=O)COc2ccc3ccccc3c2)s1	-2.6	3	1	-1
71	CC(=O)N1N=C(c2ccc(Br)cc2)OC1(C)CC(=O)Nc1ccccc1 (centres undefined)	3.4	-3	-10	8
72	O=C1[C@H]2[C@@H](C(=O)N1c1cc(Cl)cc(Cl)c1)[C@]1(C(=O)Nc3ccccc31)N1CCC[C@@H]21	6.8	-13	-26	0
73	Cn1cc([N+](=O)[O-])c(C(=O)NN=Cc2ccccc2)n1	3.3	2	/	/
74	O=C(c1ccc(NC(=S)NCc2ccco2)cc1)N1CCCCC1	9.1	9	-4	4
75	C[C@H](NC(=O)c1nc[nH]c1C(=O)NCC(=O)OCc1ccccc1)c1ccccc1	-3.1	-8	-4	2
76	Cc1ccccc1N1CCN(C2CCCN(C(=O)c3snnc3C)C2)CC1 (centres undefined)	4.2	5	-23	-17

entry	Autofluor counter	Mtb hypoxia rep	Mtb hypoxia rep growth
61	3094	/	/
62	3696	0	14
63	3681	9	9
64	2423	/	/
65	2800	-2	-3
66	/	4	5
67	8622	14	6
68	/	3	-5
69	9418	4	3
70	6012	2	9
71	2007	-3	-3
72	20946*	10	6
73	/	16	7
74	2697	-4	2
75	4212	6	5
76	7259	5	-5
